Assay outcomes as filed in PubChem.
rRNA inh HTS – selective bacterial rRNA inhibition in E. coli | E. coli WT GFP vs humanized-ribosome RFP mutants, fluorescence, 24 h; active compounds read low; DMSO median 0, no signal -100 | GFP signal change (wild-type ribosome), % (test concentration not listed) | 350,000 compounds, 1.6% hits;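 active means significant combined selectivity score with lowered wild-type GFP, culture density cut under 30%, mutant RFP and density less affected; inactive means any of these conditions unmet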; further: one replicate is shown; some compounds called inactive have numbers as strong as hits
MLL AF4-AF9 inh – MLL-AF4/AF9 protein interaction inhibition; P42568; AID 651704; inhibition, % at 10 µM; AlphaScreen, biotin-AF4 peptide binding to FLAG-AF9; 350,000 compounds, 0.47% hits;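 active means every replicate reaching a set inhibition limit, whatever the replicate mean, cut at about 25% in these data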;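 further: 0% = plate neutral control median and 100% = total signal loss; the record names both 10 and 1 µM as test concentration; the first replicate is given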
Target sequence (P42568 whole entry, looked up): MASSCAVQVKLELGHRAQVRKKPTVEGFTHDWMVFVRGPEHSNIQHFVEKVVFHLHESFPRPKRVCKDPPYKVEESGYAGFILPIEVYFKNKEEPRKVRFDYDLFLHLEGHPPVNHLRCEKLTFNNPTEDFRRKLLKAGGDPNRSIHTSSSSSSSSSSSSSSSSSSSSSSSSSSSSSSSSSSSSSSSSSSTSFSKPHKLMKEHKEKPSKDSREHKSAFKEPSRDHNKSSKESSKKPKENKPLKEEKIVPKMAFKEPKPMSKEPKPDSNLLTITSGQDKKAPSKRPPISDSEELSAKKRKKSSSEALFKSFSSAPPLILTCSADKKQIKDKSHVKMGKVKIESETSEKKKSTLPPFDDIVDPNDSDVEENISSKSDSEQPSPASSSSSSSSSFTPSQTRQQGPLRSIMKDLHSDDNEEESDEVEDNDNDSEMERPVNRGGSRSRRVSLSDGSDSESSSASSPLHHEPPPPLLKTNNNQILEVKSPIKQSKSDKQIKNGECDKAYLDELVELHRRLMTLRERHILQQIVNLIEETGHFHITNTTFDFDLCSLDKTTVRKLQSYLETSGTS
FGF22 binding – binders of recombinant human FGF22 by thermal shift. Q9HCT0. 340,000 compounds, 1.5% hits. SYPRO orange fluorescence; percent of sucrose octasulfate shift, DMSO zero. AID 651658. calls only at 9.99 µM;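 active means melting point raised past a set limit in the mean and every replicate; three in four hits are not shown here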
Target sequence (Q9HCT0 whole entry, looked up): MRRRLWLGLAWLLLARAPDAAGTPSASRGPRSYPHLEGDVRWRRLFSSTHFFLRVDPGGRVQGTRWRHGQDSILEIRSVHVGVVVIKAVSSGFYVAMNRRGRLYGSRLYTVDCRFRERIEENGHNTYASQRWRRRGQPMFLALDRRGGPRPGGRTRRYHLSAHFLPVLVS
rRNA inh HTS OD600 – further read-out of rRNA inh HTS, marked with its call; OD600 change, %; measured here: OD600 growth;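 optical density of the mix in the first replicate; 0 = DMSO median and -100 = no signal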
rRNA inh HTS RFP – further read-out of rRNA inh HTS, marked with its call; RFP signal change, %; measured here: RFP humanized mutant strains;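 first replicate; 0 = DMSO median and -100 = no signal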
Active calls of the source: *; i = inactive. An excerpt; rates above refer to the full screens.

| molecule | rRNA inh HTS | rRNA inh HTS OD600 | rRNA inh HTS RFP | MLL AF4-AF9 inh | FGF22 binding |
| --- | --- | --- | --- | --- | --- |
| C[C@H](CO)N1C[C@H](C)[C@H](CN(C)S(=O)(=O)c2cn(C)cn2)Oc2ccc(NS(=O)(=O)c3cn(C)cn3)cc2CC1=O | 2 | 4 | -3.0 | 1.6 | i |
| Cc1ccc(S(=O)(=O)Nc2ccc3c(c2)C(=O)N([C@H](C)CO)C[C@@H](C)[C@H](CN(C)C(=O)Nc2ccc(F)cc2)OCCCC[C@H](C)O3)cc1 | -2 | -3 | 2.8 | 1.6 | i |
| Cc1ccc2nc(-c3ccc(C#N)cc3)c(Cc3cccc(F)c3)n2c1 | -23 | -63 | -1.5 | -2.7 | i |
| N#C[C@@H]1[C@@H](c2ccc(C3=CCCCC3)cc2)[C@H](CO)N1C(=O)c1cccc(F)c1 | 1 | -39 | 26 | 1.4 | i |
| C[C@H](CO)N1C[C@H](C)[C@H](CN(C)Cc2ccccn2)Oc2cc(C#CC3CC3)ccc2S1(=O)=O | -3 | -13 | 6.4 | 6.6 | i |
| C/C=C/c1ccc([C@@H]2[C@@H](CO)N(C(=O)NC(C)C)[C@H]2CN(C)C(=O)CC)cc1 | 1 | -1 | 1.6 | -2.4 | i |
| C[C@@H]1CN([C@H](C)CO)C(=O)c2cc(NC(=O)Cc3cn(C)c4ccccc34)ccc2O[C@H]1CN(C)C(=O)Nc1ccc(C(F)(F)F)cc1 | -1 | 1 | 1.5 | -2.9 | i |
| COCCNC(=O)C[C@H]1CC[C@H](NS(=O)(=O)c2ccc(C)cc2)[C@H](CO)O1 | 1 | 7 | -0.2 | -0.2 | i |
| C[C@@H]1CN([C@H](C)CO)C(=O)c2cc(N(C)C)ccc2O[C@@H]1CN(C)Cc1ccccc1 | 1 | 4 | -0.1 | -1.4 | i |
| Cc1ccc(N2CCN(C(C(=O)Nc3c(C)cccc3C)c3ccccc3OC(F)(F)F)CC2)cc1 (configuration not stated) | 8 | -1 | -2.5 | 1.0 | i |
| Cc1ccccc1NC(=O)Cc1nc(COC(=O)CC(C)c2ccccc2)cs1 (configuration not stated) | -10 | -10 | 2.7 | -20 | i |
| CC(=O)Nc1cccc(NS(=O)(=O)c2ccc3c(c2)CCC(=O)N3)c1 | 3 | 15 | -1.9 | -1.3 | i |
| CCCN1[C@@H]2c3ccc(-c4ccncc4)c(=O)n3C[C@H]1[C@H](CO)[C@H]2C(=O)NCCc1cn(C)cn1 | 4 | -4 | -3.1 | -1.6 | i |
| COCCNC(=S)N1CCC(C(=O)c2ccc(Cl)cc2)CC1 | 1 | 12 | -1.5 | -2.4 | i |
| CC=Cc1ccc2n(c1=O)C[C@@H]1[C@@H](CO)[C@H](C(=O)NCC3CC3)N(Cc3ccncc3)[C@H]21 (mixture of isomers) | 3 | 4 | 0.9 | -0.4 | i |
| C[C@H]1CN([C@@H](C)CO)C(=O)c2cccc(NC(=O)Nc3ccccc3)c2O[C@H]1CN(C)S(=O)(=O)c1ccc(F)cc1 | -1 | 0 | -1.2 | 1.2 | i |
| C[C@H](CO)N1C[C@H](C)[C@H](CN(C)C(=O)Cc2ccccc2)OCCCC[C@H](C)Oc2ccc(NC(=O)Nc3ccc4c(c3)OCO4)cc2C1=O | 1 | -2 | 1.3 | 0.9 | i |
| CO[C@@H]1CN(C)C(=O)c2ccc(NC(=O)Cc3ccccc3)cc2OC[C@H](C)N(C(=O)c2ccccc2F)C[C@H]1C | 1 | 0 | 3.0 | -1.7 | i |
| C[C@@H]1CN([C@@H](C)CO)C(=O)c2cccc(NC(=O)C3CC3)c2O[C@H]1CN(C)S(=O)(=O)c1ccc(Cl)cc1 | -1 | -1 | -1.8 | -2.3 | i |
| O=C(OCc1ccccc1)N1CCC2CC1c1cc(-c3ccccc3)ccc12 (configuration not stated) | 3 | 5 | 2.2 | -3.9 | i |
| Nc1cc2cccnc2cc1Cl | 7 | 14 | -4.9 | 1.9 | i |
| CN(C)C(=O)c1cccc(-c2ccc3c(c2)[C@H]2[C@H](CCN2C(=O)c2ccccc2F)[C@H](CO)N3)c1 | -7 | -7 | -1.0 | -3.4 | i |
| COc1ccccc1S(=O)(=O)N(C)C[C@@H]1Oc2cc(C#CCC(C)C)ccc2S(=O)(=O)N([C@H](C)CO)C[C@H]1C | 0 | 13 | 0.7 | 2.1 | i |
| CCC(=O)N1CC2(C1)CN(C(=O)Nc1ccccc1F)[C@H](CO)c1[nH]c3cc(OC)ccc3c12 | -1 | -5 | 0.0 | -5.3 | i |

Four of the compounds above, with two lines to a compound.
Value order – rRNA inh HTS	rRNA inh HTS OD600	rRNA inh HTS RFP	MLL AF4-AF9 inh	FGF22 binding
- C[C@@H]1CN([C@@H](C)CO)C(=O)c2cccc(NC(=O)C3CC3)c2O[C@H]1CN(C)S(=O)(=O)c1ccc(Cl)cc1
→ -1	-1	-1.8	-2.3	i
- O=C(OCc1ccccc1)N1CCC2CC1c1cc(-c3ccccc3)ccc12 (configuration not stated)
→ 3	5	2.2	-3.9	i
- Nc1cc2cccnc2cc1Cl
→ 7	14	-4.9	1.9	i
- CN(C)C(=O)c1cccc(-c2ccc3c(c2)[C@H]2[C@H](CCN2C(=O)c2ccccc2F)[C@H](CO)N3)c1
→ -7	-7	-1.0	-3.4	i

Next section
| molecule | rRNA inh HTS | rRNA inh HTS OD600 | rRNA inh HTS RFP | MLL AF4-AF9 inh | FGF22 binding |
| --- | --- | --- | --- | --- | --- |
| COCC(=O)N1CC2(C1)CN(Cc1ccccc1Cl)[C@@H](CO)c1c2c2ccc(OC)cc2n1C | -4 | -7 | -0.6 | -2.4 | i |
| CO[C@@H]1CN(C)C(=O)c2cc(NC(C)=O)ccc2OC[C@H](C)N(Cc2ccccc2F)C[C@H]1C | -6 | -13 | 2.6 | 1.5 | i |
| C[C@@H]1CN([C@H](C)CO)C(=O)c2cc(C#CC3(O)CCCC3)cnc2O[C@@H]1CN(C)C(=O)CN(C)C | 7 | 17 | -0.9 | -11 | i |
| CCC1C/C(=C\c2cccnc2)C(=O)/C(=C/c2cccnc2)C1 (configuration not stated) | -57 | -80 | -34 | 5.1 | i |
| O=C(C[C@H]1CC[C@@H](NS(=O)(=O)c2ccc(F)cc2)[C@H](CO)O1)NCCc1ccncc1 | -2 | -1 | 1.0 | -0.4 | i |
| C[C@H]1CN([C@@H](C)CO)C(=O)c2cc(NC(=O)Nc3ccc(F)cc3)ccc2O[C@@H]1CN(C)S(=O)(=O)c1ccc(F)cc1 | 0 | -1 | 0.2 | 1.5 | i |
| Cc1ccc(S(=O)(=O)N(C)C[C@@H]2OCc3ccccc3-c3c(n(C)c4ccccc34)C(=O)N([C@@H](C)CO)C[C@@H]2C)cc1 | 1 | 0 | -3.2 | 3.3 | i |
| COc1ccc(C#Cc2ccc3c(c2)O[C@@H](CN(C)C(=O)NC2CCCCC2)[C@@H](C)CN([C@H](C)CO)S3(=O)=O)cc1 | 2 | 3 | -2.9 | -14 | i |
| C[C@H](O)C#Cc1cnc2c(c1)C(=O)N([C@@H](C)CO)C[C@@H](C)[C@@H](CN(C)C(=O)c1ccncc1)O2 | 4 | 4 | -2.9 | -1.8 | i |
| CN(C(=O)CCN1C(=O)/C(=C/c2ccc(F)cc2)SC1=S)C1CCS(=O)(=O)C1 (configuration not stated) | 9 | 12 | 0.2 | -0.7 | i |
| O=C(Nc1ccccc1F)N1C[C@H]2[C@@H](c3ccccc31)[C@@H](CO)N2C(=O)Cc1ccccc1 | 4 | 2 | 2.0 | -1.0 | i |
| COc1ccccc1-c1ccc2c(c1)O[C@@H](CN(C)S(=O)(=O)c1ccc(C)cc1)[C@@H](C)CN([C@H](C)CO)S2(=O)=O | 3 | 16 | 0.0 | -9.5 | i |
| CCS(=O)(=O)N1CCCCN2[C@H](CO)[C@@H](c3ccc(C#CC(C)(C)O)cc3)[C@H]2C1 | 1 | 3 | 0.2 | -0.4 | i |
| Cc1ccc(C(=O)NNC(=O)c2ccoc2C)s1 | 14 | 8 | -1.6 | 1.9 | i |
| CCOC(=O)[C@]12CCCC=C1N(Cc1ccccc1)C(=O)[C@H](CC(=O)NCCCOC)C2 | 15 | 8 | 0.5 | -0.9 | i |
| CCCNC(=O)N1CC2(CN(C(=O)c3cccnc3)C2)c2c([nH]c3cc(OC)ccc23)[C@@H]1CO | 0 | 14 | -0.9 | 1.4 | i |
| O=C(C[C@@H]1C[C@H]2c3cc(NC(=O)C4CCC4)ccc3O[C@H]2[C@H](CO)O1)NCc1ccccc1F | -3 | -3 | -3.0 | -1.1 | i |
| CC(C)(c1cc(Cl)c(O)c(CN2CCOCC2)c1)c1cc(Cl)c(O)c(CN2CCOCC2)c1 | -12 | -23 | -5.4 | 11 | i |
| O=C(C[C@H]1CC[C@@H](NC(=O)Nc2ccc3c(c2)OCO3)[C@H](CO)O1)NCCCN1CCOCC1 | 0 | -1 | 0.2 | 1.5 | i |
| CC(=O)N1CCCCN2[C@H](CO)[C@@H](c3ccc(C#Cc4ccccc4F)cc3)[C@H]2C1 | 8 | -19 | 2.6 | 3.1 | i |
| CSc1nsc(NN)n1 | -33* | -0.4* | -1.2* | 1.6 | i |
| CC(C)NC(=O)N[C@H]1CC[C@H](CCNC(=O)C2CCC2)O[C@H]1CO | -1 | -1 | -1.5 | 2.4 | i |
| C[C@H](CO)N1C[C@H](C)[C@@H](CN(C)CC2CCOCC2)Oc2ncc(-c3ccc(C#N)cc3)cc2C1=O | 8 | 11 | -0.9 | -2.6 | i |
| C[C@@H]1CN([C@H](C)CO)C(=O)c2cccc(NC(=O)C3CC3)c2O[C@@H]1CN(C)Cc1ccc(-c2ccccc2)cc1 | 0 | -14 | 3.0 | 0.9 | i |
| CC(C)(C)S(=O)(=O)N1C[C@H]2CC(=O)C(CCO)=C2[C@@H]1CCO | 5 | -4 | 15 | -2.7 | i |
| COc1cccc(NC(=O)N[C@@H]2CC[C@H](CC(=O)NCc3ccccn3)O[C@@H]2CO)c1 | 2 | 0 | 1.1 | -0.6 | i |
| O=C(NCCc1ccncc1)[C@@H]1[C@@H](CO)[C@@H]2Cn3c(cccc3=O)[C@H]1N2Cc1ccccc1F | 0 | 2 | -2.7 | -2.6 | i |
| Cc1ccccc1-c1ccc2c(c1)O[C@@H](CN(C)C(=O)c1ccccn1)[C@@H](C)CN([C@@H](C)CO)S2(=O)=O | -2 | -15 | -1.2 | 0.2 | i |
| CO[C@@H]1CC[C@@H]2CCOc3ccc(C#N)cc3C(=O)N(C)C[C@@H](c3ccccc3)CC(=O)N(C)C[C@H]1O2 | 2 | 3 | -3.9 | 1.1 | i |
| C[C@@H]1CN([C@@H](C)CO)C(=O)c2cc(NC(=O)CCN3CCOCC3)ccc2O[C@H]1CN(C)C | -3 | 10 | -1.1 | -0.3 | i |
| O=C(Nc1ccc(F)cc1)N1CCCCN2[C@H](CO)[C@H](c3ccc(-c4cccc(F)c4)cc3)[C@@H]2C1 | -35 | -58 | 0.8 | -3.2 | i |
| Cc1ccccc1CN(C)C[C@@H]1OCc2cn(nn2)CCCC(=O)N([C@H](C)CO)C[C@@H]1C | 0 | 10 | -0.6 | -12 | i |
| CCC(=O)N(C)C[C@H]1Oc2cc(C#CC3CC3)ccc2S(=O)(=O)N([C@H](C)CO)C[C@H]1C | -1 | 4 | 0.9 | -12 | i |
| CN(C)c1ccc(CC(=O)N2CCCC(c3cc(C(=O)Nc4ccc5c(c4)OCO5)no3)C2)cc1 (configuration not stated) | -5 | -11 | 1.6 | 13 | i |
| C[C@H](O)[C@@H]1C(=O)N2CCc3ccc(-c4ccccc4)cc3[C@@H]2C[C@@H]1N(C)C(=O)c1ccc(C#N)cc1 | -7 | -8 | 8.0 | -0.3 | i |
| CCNC(=O)C[C@H]1CC[C@@H]2[C@@H](COc3ccc(NC(=O)Nc4ccc(F)cc4)cc3C(=O)N2C)O1 | 1 | -2 | 1.6 | 0.7 | i |
| COCC(=O)N(C)C[C@H]1Oc2cc(C#CCC(C)C)ccc2S(=O)(=O)N([C@@H](C)CO)C[C@@H]1C | -2 | -3 | -3.4 | 3.6 | i |
| CN1CCN(C(=O)C[C@H]2CC[C@H](NS(=O)(=O)c3cccc(F)c3)[C@H](CO)O2)CC1 | 4 | 6 | 0.9 | -2.1 | i |
| CC(=O)NC(C)(c1ccccc1)c1nc(-c2cc(F)cc(F)c2)cs1 (configuration not stated) | 0 | -14 | 8.8 | 7.9 | i |
| COCC(=O)N(C)C[C@@H]1Oc2ncc(C#CCC3CCCC3)cc2C(=O)N([C@@H](C)CO)C[C@H]1C | 3 | 2 | 3.4 | 2.1 | i |
| CC(=O)N1[C@@H]2Cn3c(ccc(-c4ccccc4)c3=O)[C@H]1[C@@H](C(=O)Nc1ccccc1)[C@@H]2CO | 1 | -1 | -1.6 | -8.1 | i |
| CC[C@@H]1C(=O)[C@H](Cc2ccccc2)[C@H]2CCCC(=O)N3CC[C@@H]1[C@@H]23 | 2 | -4 | -1.4 | -2.0 | i |
| COc1ccccc1-c1ccc([C@@H]2[C@H]3CN(C(=O)CN4CCOCC4)CCCCN3[C@H]2CO)cc1 | 1 | 0 | 2.5 | -3.6 | i |
| OCCN1CCN(c2ncnc3c2ncn3[C@H]2CN(Cc3ccco3)C[C@@H](CO)O2)CC1 | 15 | 20 | 1.2 | 0.0 | i |
| N#C[C@H]1[C@H](c2ccc(C3=CCCC3)cc2)[C@@H](CO)N1C(=O)c1ccccn1 | 4 | 9 | -2.2 | -4.9 | i |
